Compound activity deposited in PubChem by several laboratories.
KOR beta-arrestin-1 = KOR antagonists, beta-arrestin recruitment, cell-based, luminescence, uHTS (AID 1778). KOR beta-arrestin recruitment, luminescence, antagonist mode; higher % means a stronger effect. one-dose inhibition, % at 10 µM; IC50 in µM for titrated hits. hit rate 0.091% among 290,000; in the data active means inhibition above about 50%; further: strong numbers were not always called active
KOR beta-arrestin-2 = kappa opioid receptor activators – cell-based, luminescence, uHTS, primary screen (AID 1777). KOR beta-arrestin recruitment, luminescence; higher % means a stronger effect. activation, % at 10 µM, or EC50 in µM where a hit was titrated. hit rate 0.02% among 280,000; in the data active means activation above about 50%, passing the limit was not always enough; further: a part of the inactive calls stands beside numbers as strong as those of hits
T cell modulator = T cell immune modulators affecting CD8 T cell-vesicle binding | hit rate 0.068% among 330,000 | 2C CD8+ T cell-vesicle binding, flow cytometry; stronger effect = lower value | AID 2052 | calls only at 7 µM;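 active means response, share of CD8 T cells binding vesicles, and their 90th percentile fluorescence all below set limits, cut at about 80% in these data, passing the limit was not always enough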
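Incubation: binding step 1.5 h, 37 °C, antibody labelling 20 min, ice; system: murine 2C transgenic CD8+ T lymphocytes; technique: cytometric PE anti-B7-1 and Alexa647 anti-CD8 signals after 1% paraformaldehyde fixation; also added: QL9-charged Drosophila Ld/ICAM-1/B7-1 vesicles; control set: naked versus QL9-loaded vesicles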
GPR55 antagonists = inhibition of LPI-stimulated GPR55 beta-arrestin translocation – imaging, U2OS, beta-arrestin-GFP, LPI agonist, primary screen (AID 2013); hit rate 0.13% among 290,000; inhibition, % at 10 µM, or IC50 in µM where a hit was titrated; U2OS GPR55 beta-arrestin-GFP translocation imaging, LPI antagonism; higher % means a stronger effect;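 active means spots per cell inhibited over 60%, with over 100 cells counted and total cytoplasm intensity under 500,000; inconclusive means wells with under 100 cells, flagged as likely toxic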;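 further: U2OS cells stably carrying GPR55 and arrestin-GFP stimulated by 5 µM LPI near EC80; imaged beta-arrestin-GFP aggregate spots per cell after agonist stimulation; plate controls were LPI-stimulated DMSO wells for no effect and DMSO wells without LPI for full effect; some results filed as inactive read as strong as hits; confirmed hits need IC50 under 10 µM and bright autofluorescent wells are also inconclusive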
GPR55 activation = selective activators of receptor GPR55 – imaging, U2OS cells, beta-arrestin-GFP redistribution, primary screen (AID 1961). one-dose activation, % at 10 µM; EC50 in µM for titrated hits. hit rate 0.048% among 290,000. U2OS GPR55 beta-arrestin-GFP redistribution imaging; higher % means a stronger effect;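 active means activation above 40% with more than 50 cells counted in the well; inconclusive means wells holding fewer than 50 cells, flagged as toxic or sparse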;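 further: U2OS osteosarcoma cells stably expressing GPR55 and beta-arrestin-GFP; plate controls were DMSO negative control for no effect and LPI positive control for full effect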
Myeloid diff 2 = compounds promoting myeloid differentiation; ER-HoxA9 myeloid progenitors, lysozyme-GFP differentiation, flow cytometry; calls only at 10 µM; hit rate 1% among 360,000;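 active means normalized GFP-positive differentiation at or above the plate's own cutoff, the solvent-only control mean plus 3 SD; inconclusive means no clear call, values can overlap the other calls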;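 further: cells exposed to compound for four days before flow analysis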
NTR1 ag = NTR1-driven beta-arrestin-GFP spot formation – imaging, U2OS cells, high content, primary screen (AID 493036). P30989. agonist mode. activation, % at 20 µM. hit rate 0.17% among 330,000;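 active means activation at or above 40% of the spot to cytoplasm intensity ratio, with at least 20 cells analyzed; inconclusive means wells under 20 cells, flagged as cytotoxic or low count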;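 further: 0% = DMSO without peptide and 100% = 100 nM NTR1 peptide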
Target sequence (P30989 whole entry, looked up): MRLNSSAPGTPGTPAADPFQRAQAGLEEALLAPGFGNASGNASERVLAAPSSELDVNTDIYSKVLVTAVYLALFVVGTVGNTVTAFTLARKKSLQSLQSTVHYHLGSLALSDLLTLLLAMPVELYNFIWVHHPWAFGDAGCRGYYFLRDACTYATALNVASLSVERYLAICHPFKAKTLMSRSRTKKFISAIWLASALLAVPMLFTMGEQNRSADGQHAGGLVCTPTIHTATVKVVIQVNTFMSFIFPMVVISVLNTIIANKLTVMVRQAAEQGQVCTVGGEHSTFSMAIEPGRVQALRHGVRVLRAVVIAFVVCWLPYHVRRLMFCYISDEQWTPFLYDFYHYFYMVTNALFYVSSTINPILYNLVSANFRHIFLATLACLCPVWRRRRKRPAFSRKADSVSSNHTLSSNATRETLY
T cell modulator vesicle-bound % = recorded beside T cell modulator, whose call it bears; double positive events, %; measured here: CD8+ vesicle-bound cell fraction;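 binding gate set so that unloaded-vesicle control wells show 10% double positive cells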
NTR1 ag cell count 20 µM = further read-out of NTR1 ag, marked with its call; cell count; measured here: cell count, cytotoxicity flag
Myeloid diff 2 GFP+ MAC1+ % = second read-out of Myeloid diff 2, no call of its own (marks repeat the call); GFP+ MAC1+ double positive, %; measured here: differentiation confirmed by MAC1 staining
Active calls of the source: *; i = inactive; ? = inconclusive; . = not tested or not shown; + = active, no number; [ ] = another dose, or the depositor's remark. Some of the compounds tested; the hit share may differ from the screen's.

SMILES	KOR beta-arrestin-1	KOR beta-arrestin-2	T cell modulator	T cell modulator vesicle-bound %	GPR55 antagonists	GPR55 activation	Myeloid diff 2	Myeloid diff 2 GFP+ MAC1+ %	NTR1 ag	NTR1 ag cell count 20 µM
CCOc1ccc(N=C2NC(=O)S/C2=C\c2ccc(Cl)cc2)cc1	-16%	10%	i	56	24%	-0.1%	i	0.7	-1.6	92
CCOC(=O)C1=C(Cc2ccc(F)cc2)C(=O)c2ccccc2C1=O	-129%	-6.1%	i	57	13%	-0.1%	+	8.1*	6.9	82
COc1cc(OC)c(OC)cc1/C=C/C(=O)c1ccc(NS(=O)(=O)c2ccc(C)cc2)cc1	-23%	11%	i	24	5%	0.2%	+	1.0*	3.7	43
O=C(CCCN1C(=O)/C(=C/c2ccccc2Cl)SC1=S)NNC(=O)c1ccc(Cl)cc1	0%	.	i	21	10%	0.0%	i	0.9	5.0	52
Cc1cc(Cl)ccc1NC(=O)CN1CCC(C(O)(c2ccccc2)c2ccccc2)CC1	29%	3.1%	i	49	12%	-0.1%	i	2.2	7.1	34
Cc1ccccc1CN1CCc2c(OCC(=O)N3CCCc4ccccc43)cccc2C1=O	31%	1.6%	i	40	48%	-0.3%	i	1.1	.	.
N#Cc1nc(-c2ccc(OCc3ccccc3)cc2)oc1NCCCn1ccnc1	-52%	5.3%	i	47	-31%	-0.1%	i	1.0	2.6	32
Cc1ccc(-c2csc(NC3OC(=O)c4ccccc43)n2)cc1 (stereo not given)	-19%	-0.9%	i	29	2%	-0.2%	?	.	8.3	49
CCCS(=O)(=O)c1nnnn1-c1cccc(OC)c1	26%	-2.5%	i	35	20%	2.4%	.	.	.	.
CC(=O)N(Cc1ccc(F)cc1)C1=C(NCCc2ccccc2)C(=O)c2ccccc2C1=O	-10%	-0.2%	i	39	3%	-0.1%	i	0.0	7.8	101
CS(=O)(=O)Nc1ccccc1C(=O)Nc1cc(Cl)cc(Cl)c1	-58%	.	i	21	3%	0.0%	i	2.5	2.4	89
CC(=O)c1c(O)cc(=O)n(-c2ccccc2)c1-c1cccc2ccccc12	-8%	-1.8%	i	21	10%	0.5%	i	0.0	-0.9	56
COC(=O)C(=Cc1ccc(OCc2ccc([N+](=O)[O-])cc2)c(OC)c1)C(=O)OC	15%	-3.2%	i	19	2%	0.1%	.	.	45*	46*
Oc1ccc(CCNc2ncnc3ccc(Cl)cc23)cc1	6%[20 µM]	-0.3%	i	6	-12%	-0.1%	i	6.1	6.9	66
COc1cc(/C=N/Nc2nc3c(c(=O)n(C)c(=O)n3C)n2Cc2ccccc2)ccc1OC(=O)c1ccco1	6%	1.9%	i	48	10%	0.3%	?	.	13	36
Cc1ccc(N(Cc2cc(=O)[nH]c3ccccc23)C(=O)CCl)cc1	-24%	0.7%	i	15	2%	-0.1%	i	0.8	9.5	77
NS(=O)(=O)c1ccc(Sc2nc3ccccc3s2)c([N+](=O)[O-])c1	9%	1.1%	i	42	-8%	-0.1%	i	1.6	3.1	40
COc1ccc(/C=C(/NC(=O)c2ccccc2)C(=O)N/N=C/c2ccncc2)cc1	8%	1.4%	i	38	11%	0.3%	i	0.0	0.9	96
COc1ccc(/C=C(\NC(=O)c2ccccc2)C(=O)N/N=C/c2ccncc2)cc1	2%	-1.0%	i	40	-5%	0.2%	i	5.2	0.7	48
O=C(Nc1ccc(N2CCN(C(=O)c3ccc(Cl)cc3)CC2)cc1)c1ccc2c(c1)OCCO2	-49%	8.3%	i	35	5%	-0.1%	i	6.8	2.5	89
C=CCn1c(SCc2ccc(C(=O)Nc3ccccc3)cc2)nnc1-c1ccccc1	-15%	1.7%	i	16	1%	-0.1%	i	8.0	5.1	61
Clc1ccc(-c2csc3ncnc(NCCN4CCOCC4)c23)cc1	0%	-6.5%	i	42	0%	-0.1%	i	0.5	6.0	35
CCC1CCCCN1S(=O)(=O)c1ccc(C(=O)Nc2nnc(-c3ccccc3Cl)o2)cc1 (stereo not given)	18%	3.1%	i	28	0%	-0.2%	i	3.8	0.8	54
Nc1[nH]n2c(=O)cc(-c3ccccc3)nc2c1N=Nc1ccccc1	-3%	1.2%	i	24	7%	-0.1%	i	0.7	0.9	68
Cn1cccc1-c1cc(C(=O)N/N=C/c2cc(Br)ccc2O)[nH]n1	-28%	0.8%	i	10	-6%	0.3%	?	.	1.5	69

Next section, starting with the last 2 of the part before.
SMILES	KOR beta-arrestin-1	KOR beta-arrestin-2	T cell modulator	T cell modulator vesicle-bound %	GPR55 antagonists	GPR55 activation	Myeloid diff 2	Myeloid diff 2 GFP+ MAC1+ %	NTR1 ag	NTR1 ag cell count 20 µM
Nc1[nH]n2c(=O)cc(-c3ccccc3)nc2c1N=Nc1ccccc1	-3%	1.2%	i	24	7%	-0.1%	i	0.7	0.9	68
Cn1cccc1-c1cc(C(=O)N/N=C/c2cc(Br)ccc2O)[nH]n1	-28%	0.8%	i	10	-6%	0.3%	?	.	1.5	69
O=C1NC(=O)/C(=C\c2ccccc2Oc2ccc(F)c(F)c2)S1	-53%	-2.1%	i	58	-1%	0.0%	i	0.6	3.1	62
O=C1N/C(=N\N=C\c2ccccn2)SC1Cc1cccc(SC(F)F)c1 (stereo not given)	49%	1.7%	i	21	8%	0.0%	i	2.6	2.7	70
CC1CCCCN1S(=O)(=O)c1ccc(C(=O)Nc2nnc(-c3ccccc3Cl)o2)cc1 (stereo not given)	-14%	4.8%	i	55	-9%	-0.1%	i	3.2	-1.7	56
Cn1ncc2c(N3CCN(c4ccc(Cl)c(Cl)c4)CC3)ncnc21	-96%[20 µM]	1.7%	i	18	-20%	-0.1%	i	0.3	8.1	52
CN(C)CCNC(=S)Nc1cccc(Cl)c1	-31%	-1.7%	i	55	7%	0.0%	i	0.7	-2.2	73
CCOc1cc(C)c(S(=O)(=O)Nc2ccc3cn[nH]c3c2)cc1C	-8%	5.1%	i	14	-4%	-0.1%	i	6.4	4.2	47
O=C(NCc1cccc(C(F)(F)F)c1)c1cc(Cl)cc(Cl)c1	-12%	-1.2%	i	27	-11%	-0.1%	i	4.1	8.8	88
Clc1ccc(CSc2nnc(-c3ccncc3)o2)cc1	0%	1.6%	i	55	41%	-0.1%	i	0.7	5.9	101
COc1ccc(Cn2nnnc2C(c2ccccc2Cl)N2CCC(C(N)=O)CC2)cc1 (stereo not given)	-14%	4.4%	i	44	-15%	-0.1%	i	0.9	-0.8	81
Cc1csc2ncnc(N3CCN(C(=O)Nc4ccc(OC(F)(F)F)cc4)CC3)c12	-11%	3.0%	i	36	-5%	0.3%	i	0.4	5.3	58
Cn1cc([N+](=O)[O-])c(C(=O)Nc2cc(Oc3ccccc3)cc([N+](=O)[O-])c2)n1	7%	2.2%	i	32	0%	0.2%	?	.	.	.
CC(=O)c1ccc(N2CCN(C(=S)Nc3ccc(Oc4ccccc4)cc3)CC2)cc1	2%	-0.7%	i	47	-12%	0.2%	i	0.2	2.3	43
O=C(CCl)c1cc2c3c(c1)CC(=O)N3CCC2	-32%	-0.2%	i	24	0%	1.2%	i	2.0	2.4	39
O=C(Nc1ccccc1)C1=C(c2ccccc2)S(=O)(=O)CCS1(=O)=O	26%	-3.7%	.	.	-2%	0.7%	?	.	.	.
O=C(Nc1ccccc1C(=O)O)c1cc(S(=O)(=O)N2CCCCC2)c(Cl)cc1Cl	-26%	-4.1%	i	42	53%	-0.2%	i	2.8	1.8	63
COc1ccccc1N1CCN(C(=O)C2CCCN(S(=O)(=O)c3ccc4c(c3)oc(=O)n4C)C2)CC1 (stereo not given)	-6%	-1.2%	i	23	3%	-0.2%	i	3.4	1.1	62
O=C(Nc1ccc(Cl)cn1)C1CCN(c2ncnc3c2nc2n3CCCCC2)CC1	-18%	3.1%	i	28	-8%	-0.1%	i	0.2	1.7	55
COc1cccc(N2CCN(c3ncnc4c3cnn4-c3ccc(C)cc3C)CC2)c1	-98%	22%	i	38	11%	-0.1%	i	1.5	22	93
CNC1=C(N(C(C)=O)c2ccc(Br)cc2)C(=O)c2ccccc2C1=O	-24%	2.1%	i	36	-4%	-0.5%	?	.	.	.
CC(Oc1ccc(Br)cc1)C(=O)Nc1nc(-c2ccccn2)cs1 (stereo not given)	5.4µM*	2.2%	i	54	40%	-0.1%	+	6.0*	3.6	53
COc1cccc(N2CCN(c3ncnc4c3[nH]c3ccc(F)cc34)CC2C)c1 (stereo not given)	-65%	1.5%	i	58	92%*	-0.1%	?	.	-2.6	39
O=C(/C(=C/c1ccc(Cl)cc1)c1nc2ccccc2[nH]1)c1cccs1	1%	2.7%	i	7	5%	5.1%	?	.	54*	74*
COc1ccc(-[n+]2c(C)cc(/C=C3\Sc4ccccc4N3C)cc2C)cc1	-124%	-2.7%	i	55	?	-0.5%	.	.	-4.6	79
CCCCCn1c(SCCc2ccccc2)nc2c1c(=O)[nH]c(=O)n2C	-8%	-4.6%	i	44	0%	0.0%	i	1.3	5.0	69
COc1ccc(-c2cn[nH]c2-c2ccc(OC)cc2O)cc1	46%	-1.5%	i	27	4%	0.0%	i	0.1	1.8	73
Cc1ccc(NC(=O)c2ccccc2NS(=O)(=O)c2ccc(F)cc2)cc1S(=O)(=O)N1CCCCC1	-50%	3.2%	i	26	11%	0.0%	i	0.6	1.0	73
CC1=C(C(N)=O)C(c2cccs2)n2nc(-c3cccc(Cl)c3)nc2N1 (stereo not given)	1%	4.7%	i	12	0%	-0.1%	i	0.4	-1.1	72
CCN(c1ccccc1)S(=O)(=O)c1ccc(NC(=S)NC(=O)c2cccs2)cc1	-18%	6.7%	i	44	9%	0.2%	i	1.6	16	48
CNc1nc(-c2ccc3c(c2)CCN3S(=O)(=O)c2ccccc2)c(C)s1	-8%	2.8%	i	65	6%	0.1%	i	0.6	-0.6	64

Single records, from the list above. Values in the order: KOR beta-arrestin-1	KOR beta-arrestin-2	T cell modulator	T cell modulator vesicle-bound %	GPR55 antagonists	GPR55 activation	Myeloid diff 2	Myeloid diff 2 GFP+ MAC1+ %	NTR1 ag	NTR1 ag cell count 20 µM
COc1cccc(N2CCN(c3ncnc4c3[nH]c3ccc(F)cc34)CC2C)c1 (stereo not given) as listed: -65%	1.5%	i	58	92%*	-0.1%	?	.	-2.6	39
O=C(Nc1ccccc1)C1=C(c2ccccc2)S(=O)(=O)CCS1(=O)=O as listed: 26%	-3.7%	.	.	-2%	0.7%	?	.	.	.
O=C(CCl)c1cc2c3c(c1)CC(=O)N3CCC2 as listed: -32%	-0.2%	i	24	0%	1.2%	i	2.0	2.4	39
COc1ccccc1N1CCN(C(=O)C2CCCN(S(=O)(=O)c3ccc4c(c3)oc(=O)n4C)C2)CC1 (stereo not given) as listed: -6%	-1.2%	i	23	3%	-0.2%	i	3.4	1.1	62
